# Screens from PubChem.
# H5N1 antiviral – antiviral screen in MDCK cells, H5N1 avian flu; cytopathic effect, luminescence, 72 h; active compounds read high; no value below 0 was filed and about half of the inactive calls have no number; reference of the scale not given here; inhibition, % at 50 µM; 0.07% of 96,000 active; AID 740; in the data active = inhibition above about 25%
# The depositor's hits bear a star; i = inactive. Some of the compounds tested, so the mix of outcomes need not match the whole.
SMILES,H5N1 antiviral
CCOC(=O)CSC1=Nc2ccccc2C2=NC(CC(=O)NCc3cccs3)C(=O)N12 (stereo unspecified),2.8
NC(=O)c1c(NC(=O)c2ccco2)sc2c1CCC2,0.2
CCN(CC)C(=O)CN(Cc1ccccc1)S(=O)(=O)c1ccc(F)cc1,1.9
CCOC(=O)CCCNC(=O)c1cncc(Br)c1,i
Cc1nn(Cc2c(Cl)cccc2Cl)c(C)c1NC(=O)c1cn(-c2ccccc2)nc1-c1ccccc1,i
N#Cc1ccsc1NC(=O)c1ccccn1,i
Cc1ccc(NC(=O)CSc2nnc(Cn3c(=O)sc4ccccc43)n2C)cc1Cl,i
O=C(c1ccccc1)N1CCN2C(=O)c3ccccc3C12c1ccc(Cl)cc1 (stereo unspecified),2.6
N#Cc1nc(-c2cccc3ccccc23)oc1N1CCCCC1,0.8
CCN(CC)C(=O)CSc1nc2sc3c(c2c(=O)n1-c1ccc(C)cc1)CC(C)(C)SC3,0.6
Cc1cc(C)nc(NC(=NCCc2c[nH]c3ccccc23)NC(=O)c2ccco2)n1,i
COc1ccc2c(c1)C(C)=CC(C)(C)N2C(=O)CSc1nnc(-c2ccc(C)cc2)o1,i
N#Cc1ccc(CSc2nnc(-c3cccnc3)n2-c2ccccc2)cc1,1.5
Cc1ccc(SCc2ccc(C(=O)Nc3cccc([N+](=O)[O-])c3C)cc2)cc1,i
COc1ccc(NC(=O)c2ccco2)cc1NC(=O)c1c(F)c(F)c(OC)c(F)c1F,0.7
O=S(=O)(Cc1ccc(Cl)cc1)c1ccccc1-c1nnc(-c2ccccc2)o1,0.5
Cc1nn(C(C)C(=O)O)c(=O)c2c1sc1ccccc12 (stereo unspecified),i
Cc1ccc(NC(=O)CN2C(=O)S/C(=C\c3cccn3C)C2=O)cc1,4.1
COc1ccc(NS(=O)(=O)c2ccc(NS(=O)(=O)c3ccc(SC)cc3)cc2)c(OC)c1,0.5
CN1C(=O)N(CN2CCCCC2)C2C1N(C)C(=O)N2CN1CCCCC1 (stereo unspecified),i
O=C1CC(=O)C(n2cncn2)C(c2cccc(Cl)c2)C1 (stereo unspecified),i
CCN(CC)CCNC(=O)c1ccc(Cl)c(S(=O)(=O)Nc2ccc(Cl)cc2)c1,0.7
CCN(CC)C(=O)C1CCN(S(=O)(=O)c2cccc3nonc23)CC1,1.3
CCc1cc(-c2n[nH]c(=S)n2-c2cccc(C)c2)cs1,i
CCN1CCN(c2cc(C)c3cc(NC(=O)c4ccccc4F)ccc3n2)CC1,i
CCOc1ccccc1NC1=NCC(=O)N1Cc1ccc(F)cc1,0.3
COc1ccc2nc(NC(=O)CCN3C(=O)c4ccccc4C3=O)sc2c1,i
CCC(=O)n1nc(NCc2ccccc2OC)nc1NCc1ccccc1OC,i
CCOC(=O)c1c(NC(=S)NC(=O)c2ccc(Cn3cc(Cl)cn3)o2)sc2c1CCCCC2,i
O=C(Nc1nnc(CCN2CCOCC2)s1)C1CCCCC1,0.2

# Retrieved one by one from the list above (two):
SMILES,H5N1 antiviral
COc1ccc2nc(NC(=O)CCN3C(=O)c4ccccc4C3=O)sc2c1,i
CCN(CC)C(=O)C1CCN(S(=O)(=O)c2cccc3nonc23)CC1,1.3

# Next part.
SMILES,H5N1 antiviral
O=C(CSc1nc2ccsc2c(=O)n1Cc1ccccc1)NCc1ccco1,2.1
CCCc1cc(C(=O)Nc2cc(OC)c(Cl)cc2OC)no1,0.4
O=C(CC1Sc2ccccc2NC1=O)OC(C(=O)NCCc1ccccc1)c1cccnc1 (stereo unspecified),2.2
O=C(O)CCC(=O)Nc1ccccc1C(=O)Nc1ccccc1,0.4
Clc1ccc(CSc2nnc([C@@H]3CCCN3)o2)cc1,i
CCCCn1nnc(NC(=O)CC23CC4CC(CC(C4)C2)C3)n1,0.2
COc1cc2c(=O)n(Cc3ccccc3)c(=O)n(CC(=O)NCC3CCCO3)c2cc1OC (stereo unspecified),0.3
N#Cc1c(F)cccc1N1CCOCC1,i
O=C(O)C1CCC(=O)N(C2CCCCC2)C1c1ccccc1 (stereo unspecified),i
CC(/C=C/c1ccc2c(c1)OCO2)=N\NC(=O)c1cccc([N+](=O)[O-])c1,0.1
CCOC(=O)C1=C(C)Nc2ncnn2C1c1ccc2c(c1)OCO2 (stereo unspecified),1.4
COCCn1c(SCC(=O)N2CCCCC2)nc2ccccc2c1=O,i
COC(=O)c1c(-c2ccc(F)cc2)csc1NC(=O)c1ccco1,0.1
CCn1c(Cn2nnc(-c3ccccc3)n2)nnc1SCc1ccc(Cl)c(Cl)c1,i
Cc1ccc(OCCSc2nnc(NC(=O)c3ccco3)s2)cc1,i
Oc1cc2ccccc2cc1-c1n[nH]c(=S)o1,i
COc1ccccc1-c1cc(C(F)(F)F)nc(S(=O)(=O)CCCC(=O)N2CCCCC2C)n1 (stereo unspecified),i
COc1cccc(OC)c1C1=NCC(=O)Nc2c1oc1ccc(Br)cc21,i
CCN(Cc1ccccc1)S(=O)(=O)c1nc2nc(C)c(C)c(C)n2n1,1.1
O=C(Cn1cc(C(=O)c2cccs2)c2ccccc21)NCc1ccc2c(c1)OCO2,i
COc1ccc(NC(=O)c2c(-c3ccccc3Cl)noc2C)c(OC)c1,0.1
CCOC(=O)N1CCN(C(=O)c2cc3c(=O)n(C)c4ccccc4c3n2C)CC1,1.0
CCOc1ccc(N2C(=O)Nc3ccccc3C2(O)C(=O)NCc2ccc3c(c2)OCO3)cc1 (stereo unspecified),i
Cc1cc2c(c(=O)o1)C(Cc1ccccc1)C(C#N)=C(N)O2 (stereo unspecified),i
CCOc1ccc(/C=N/NC(=O)COc2ccccc2-c2ccccc2)cc1,i
CCOc1ccc(N(CC(=O)NC2CCCCCC2)S(=O)(=O)c2c(C)noc2C)cc1,0.1
Cc1nnc(SCC(=O)N2CCC(C(N)=O)CC2)s1,i
O=C(COC(=O)CCOc1ccccc1)Nc1ccc(Cl)cn1,1.4
Cc1ccc(N(C(=O)c2csnn2)C(C(=O)NC(C)(C)C)c2ccncc2)cc1 (stereo unspecified),0.3
CC(C)Oc1ccc(C(=O)Nc2ccccc2N2CCCC2)cc1,i
COCCOc1ccc(C(F)(F)F)cc1Nc1nc2ccccc2o1,i
COc1cccc(/C=N/n2cncn2)c1OCC#N,0.8
CC(C)[C@H](NC(=O)NC1CCCC1)C(=O)O,0.3
CCOc1cc(C(=O)N2CCN(c3ccc(C(C)=O)cc3)CC2)cc(OCC)c1OCC,i
CCc1ccc(C(=O)/C=C/c2ccc([N+](=O)[O-])o2)cc1,0.4
COC(=O)C(CCSC)NC(=O)c1cccc([N+](=O)[O-])c1 (stereo unspecified),i
Cc1ccc2c(c1)N(CC(=O)N1CCCCC1c1cccnc1)C(=O)CO2 (stereo unspecified),0.9
Cc1cc(NC(=O)COC(=O)c2cc3c(s2)CCC(C)C3)no1 (stereo unspecified),i
Cc1cccc(NC(=O)CS(=O)(=O)Cc2ccccc2)n1,0.6
O=C(NCCCO)c1ccc2[nH]c3ccccc3c2c1,2.8
CSc1ccccc1NS(=O)(=O)c1ccc2c(c1)OCCO2,1.0
CCCNc1c(N)c(=O)oc2ccccc12,1.3
COC(=O)c1c(NC(=O)C2CC2)sc2c1CCCC2,i
CCCCn1c(O)c(C(CC)=Nc2ccc(OCC)cc2)c(=O)[nH]c1=O,i
COc1cc2c(=O)n(Cc3ccco3)c(=O)n(CC(=O)c3ccc(Br)cc3)c2cc1OC,i
CN=C1SC(CC(=O)Nc2cc(Cl)ccc2Cl)C(=O)N1C (stereo unspecified),i
CCN(CC)C(=O)CSc1nc2c(sc(=S)n2-c2ccccc2)c(=O)n1Cc1ccco1,1.2
O=C(c1ccccc1NS(=O)(=O)c1ccc(Br)s1)N1CCCC1,0.5
COc1ccc(CC(NC(C)=O)C(=O)NC2CCN(S(=O)(=O)c3ccccc3)CC2)cc1OC (stereo unspecified),1.0
O=C(O)c1cc(NCc2ccc(F)cc2)ccc1N1CCOCC1,1.7
# Next compounds
SMILES,H5N1 antiviral
c1cc2nncn2nc1N1CCCC1,0.5
CCCN(C(=S)Nc1ccccc1)C1CCS(=O)(=O)C1 (stereo unspecified),i
COc1ccc(Nc2cc(C(=O)NCCCN3CCOCC3)c3ccccc3n2)c(OC)c1,0.7
CCOc1ccc(C(=S)N2CCCC2)cc1,0.1
CC1(C)Cc2c(c(N3CCOCC3)nc3snc(NC(=O)c4ccccc4)c23)CO1,i
Cc1ccc(SCc2nc(-c3ccccc3)no2)cc1,i
Cc1ccc(-c2nc3ccccc3o2)cc1NC(=S)NC(=O)c1cccs1,i
Cc1cc(C)n(-c2nc(SCCN(C)C)c3c4c(sc3n2)COC(C)(C)C4)n1,i
COCCNC(=O)c1ccc2ccccc2n1,0.6
COc1ccc(-c2nnn(CC(=O)NCc3cccs3)n2)cc1OC,i
COc1ccc(OC)c(NC(=S)NN2CCN(C)CC2)c1,i
Cc1cccc(NC(=O)C2CCCN2C(=O)Oc2ccccc2)c1 (stereo unspecified),0.1
CC1CC(C(F)(F)F)n2ncc(C(=O)O)c2N1 (stereo unspecified),i
CCOC1OC2C(CO)OC(n3cnc4c(N)ncnc43)C2O1 (stereo unspecified),i
CCCOc1ccc([C@@H]2C3CN(C(=O)OCC)CC=C3C(C#N)=C(N)C2(C#N)C#N)cc1OC (stereo partly specified),1.4
CC(C)COc1cccc(C(=O)Nc2ccc(S(=O)(=O)N3CCOCC3)cc2)c1,i
CCCS(=O)(=O)c1c(S(=O)(=O)CCC)c2cc(CC)ccn2c1C(=O)OC,i
CCSc1nnc(NC(=O)CSc2nc3c(c(=O)n2C)SC(C)C3)s1 (stereo unspecified),2.1
Cc1nn(-c2ccccc2)c2c1C1(C(=O)N3c4c(cccc41)C(C)CC3(C)C)C(C#N)=C(N)O2 (stereo unspecified),i
Cc1ccc(N2C(=O)CC(n3ccnc3)C2=O)cc1C (stereo unspecified),i
CCCCn1nc2cc(C(=O)NCc3ccccc3OC)ccc2c1OCC,i
COc1ccc(OC)c(C2C(C(=O)c3cccs3)=C(O)C(=O)N2CCN(C)C)c1 (stereo unspecified),0.1
Cc1ccc(CNC(=O)C2c3ccccc3C(=O)N(C)C2c2c[nH]c3ccccc23)o1 (stereo unspecified),i
CC1=CCC2C(=O)N(c3ccc(C)cc3)C(=O)C2C1 (stereo unspecified),i
CC1CC(NC(=O)C2(C)CC2(Cl)Cl)CC(C)(C)C1 (stereo unspecified),0.7
COC(=O)c1ccc(Oc2nc3c(c(=O)n(C)c(=O)n3C)n2CCC(C)C)cc1,2.3
CCCCc1ccc(NC(=O)CSC2=C(C#N)C(c3ccco3)C3=C(CCCC3=O)N2)cc1 (stereo unspecified),0.5
COc1cc(NC(=O)CN2CCN(Cc3ccc4c(c3)OCO4)CC2)cc(OC)c1,i
CCOc1ccccc1NC(=O)c1ccc(S(=O)(=O)N(C)C)cc1,4.0
C/C(=C\C(=O)c1ccc(Cl)cc1)NCc1ccc2c(c1)OCO2,0.1

# In a second layout: results already given.
compound	H5N1 antiviral
CCCOc1ccc([C@@H]2C3CN(C(=O)OCC)CC=C3C(C#N)=C(N)C2(C#N)C#N)cc1OC (stereo partly specified)	1.4
CC(C)COc1cccc(C(=O)Nc2ccc(S(=O)(=O)N3CCOCC3)cc2)c1	i
CCCS(=O)(=O)c1c(S(=O)(=O)CCC)c2cc(CC)ccn2c1C(=O)OC	i
CCSc1nnc(NC(=O)CSc2nc3c(c(=O)n2C)SC(C)C3)s1 (stereo unspecified)	2.1
Cc1nn(-c2ccccc2)c2c1C1(C(=O)N3c4c(cccc41)C(C)CC3(C)C)C(C#N)=C(N)O2 (stereo unspecified)	i
Cc1ccc(N2C(=O)CC(n3ccnc3)C2=O)cc1C (stereo unspecified)	i
CCCCn1nc2cc(C(=O)NCc3ccccc3OC)ccc2c1OCC	i
COc1ccc(OC)c(C2C(C(=O)c3cccs3)=C(O)C(=O)N2CCN(C)C)c1 (stereo unspecified)	0.1
Cc1ccc(CNC(=O)C2c3ccccc3C(=O)N(C)C2c2c[nH]c3ccccc23)o1 (stereo unspecified)	i
CC1=CCC2C(=O)N(c3ccc(C)cc3)C(=O)C2C1 (stereo unspecified)	i
CC1CC(NC(=O)C2(C)CC2(Cl)Cl)CC(C)(C)C1 (stereo unspecified)	0.7
COC(=O)c1ccc(Oc2nc3c(c(=O)n(C)c(=O)n3C)n2CCC(C)C)cc1	2.3
CCCCc1ccc(NC(=O)CSC2=C(C#N)C(c3ccco3)C3=C(CCCC3=O)N2)cc1 (stereo unspecified)	0.5
COc1cc(NC(=O)CN2CCN(Cc3ccc4c(c3)OCO4)CC2)cc(OC)c1	i
CCOc1ccccc1NC(=O)c1ccc(S(=O)(=O)N(C)C)cc1	4.0
C/C(=C\C(=O)c1ccc(Cl)cc1)NCc1ccc2c(c1)OCO2	0.1

# Next structures.
SMILES,H5N1 antiviral
CC1CCCCN1C(=O)Cn1c(=O)oc2ccccc21 (stereo unspecified),i
C=CCn1c(SCc2c(C(=O)OC)sc(N)c2C(=O)OC)nnc1-c1ccc(Br)cc1,i
Cc1cc(C)n(S(=O)(=O)c2ccc(Cl)c(Cl)c2Cl)n1,i
CC(=O)NS(=O)(=O)c1ccc(NC(=O)c2ccc(Br)o2)cc1,0.2
O=C(Nc1cccc(C(F)(F)F)c1)C1CCCN(S(=O)(=O)c2cnc[nH]2)C1 (stereo unspecified),2.6
CCCCC(=O)Nc1ccc(C(N)=O)cc1,i
CCSc1cc(C)nc2ncnn12,i
CC1Cc2ccccc2N1C(=O)c1cnc2ccccn2c1=O (stereo unspecified),1.5
COc1ccccc1CNc1nc2nc3c(c(=O)n2[nH]1)CCC3,i
CCC(NC(=O)N(Cc1ccccc1)Cc1ccc2c(c1)OCO2)(C(F)(F)F)C(F)(F)F,3.4
COCCn1c(C)cc(C(=O)COC(=O)c2cc3c(s2)CCC3)c1C,i
CC[C@@H](C)[C@H](NS(=O)(=O)c1ccc(C)cc1)C(=O)N1CCC(C(=O)NCC(=O)O)CC1,1.2
COc1ccc(Nc2nc(N3CCCC3)c3ccccc3n2)cc1,i
CN(CC(=O)NCc1ccco1)S(=O)(=O)c1ccc2c(c1)n(C)c(=O)c(=O)n2C,7.4
COCCCNC(=O)c1ccccc1NS(=O)(=O)c1ccc(C)cc1,0.4
COC(=O)c1cc2ccccc2oc1=O,i
Cc1nc(NCc2ccco2)c(C#N)c2c1COC(C)(C)C2,4.2
Cc1cc2cc(CN(Cc3cccs3)Cc3nnnn3CC3CCCO3)c(=O)[nH]c2cc1C (stereo unspecified),0.7
CCC(CC)C(=O)Nc1c2cnn(-c3ccccc3)c2nc(=O)n1-c1ccccc1,i
CCOC(=O)N1CCC(NS(=O)(=O)c2ccc3c(c2)C(C)(C)C(=O)N3C)CC1,0.7
